Mtb hypoxia rep = inhibitors of hypoxia-regulated fluorescent reporter in Mycobacterium tuberculosis | M. tuberculosis hypoxia-regulated fluorescent reporter, fluorescence | fluorescence inhibition, % (test concentration not listed) | 300,000 tested, 0.1% active;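 active = 35 to 45% if threefold the growth effect, above 45% if 1.5-fold the growth effect; inactive = the rest, general growth blockers included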;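 note: wells of about 50 µL received 100 nL stock; 0% = vehicle wells and 100% = reference inhibitor wells; whole bacteria with a GFP reporter of the hypoxia response; strong numbers were not always called active; many hits fall short of the cut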
Autofluor counter = counter-screen for toxin protease inhibitors: compound fluorescence; compound autofluorescence counterscreen, microsphere flow cytometry; active compounds read high; fluorescence intensity (no concentration beside the values); 360,000 tested, 3.1% active; AID 624483;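 active = at least 3 SD above the mean of all compounds, about 16000 in these data; inconclusive = too few beads counted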;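 note: 100 nL of 1 mM stock went into each well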
RN4220 kill = S. aureus RN4220 growth inhibition; OD600, 16 h; inhibition, % (concentration not given with the values); 330,000 tested, 0.33% active; AID 1259311;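 active = z-score of -3 or lower and OD600 up to 0.18 on both plates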;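 note: plate controls were untreated cells for no effect and reference antibiotic for full effect; stock transfer was 100 nL into about 80 µL; one replicate is shown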
BJeLR lethal = kills HRASV12-expressing BJeLR cells; BJeLR (HRASV12) viability, CellTiter-Glo ATP luminescence, 48 h; reference of the scale not given here; inhibition, % (concentration not given with the values); 300,000 tested, 0.17% active; AID 1554;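 active = replicate mean above 50%; inconclusive = above 50% but judged a plate artefact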;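 note: 50 nL library stock added to about 25 µL; numbers are from one replicate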
PrP UTR inh = suppresses PrP 5' UTR mRNA reporter expression. cell-based PrP 5' UTR mRNA reporter, plate reader. 340,000 tested, 0.35% active. inhibition, % (no concentration beside the values);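 active = every replicate at 50% or more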;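 note: 0 = median of the neutral control wells; tested in H4 reporter cells; numbers are from one replicate; inactives centre near -14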
Sa ugtP lethal = compounds lethal to S. aureus RN4220 ugtP deletion mutant; AID 1259309; OD600 growth, 16 h; some inactives read as strong as hits; growth inhibition, % (no concentration beside the values); 330,000 tested, 0.54% active;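 active = z-score under -3 and OD600 up to 0.15 on both plates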;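 note: plate controls were untreated wells for no effect and antibiotic for full effect; wells of about 80 µL received 100 nL stock; the first replicate is given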
Mtb hypoxia rep growth = second read-out of Mtb hypoxia rep, no call of its own (marks repeat the call); growth inhibition, %; measured here: M. tuberculosis growth (absorbance);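 0% = vehicle and 100% = reference antibiotic; read after six days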
Starred values were filed as active, the others as inactive; u = inconclusive; x = no result given.

SMILES	Mtb hypoxia rep	Mtb hypoxia rep growth	Autofluor counter	RN4220 kill	BJeLR lethal	PrP UTR inh	Sa ugtP lethal
Cc1ccc(NC(=S)N(CCCN2CCCC(C)C2)Cc2ccco2)cc1C (stereo unspecified)	0.3	-4.0	3467	4.8	1.7	-9.2	3.5
CCOc1ccc(-c2nnn(CC(=O)NCc3ccccc3)n2)cc1	-3.9	-2.9	3608	-3.2	-2.8	-18.2	-4.5
Cc1sc2ncnc(SCC(=O)NNC(=O)c3ccco3)c2c1C	14.1	-2.3	2138	4.8	-0.7	-28.2	-2.3
COC(=O)CSc1ccc2nnc(CCNS(=O)(=O)c3ccc(C)cc3)n2n1	4.6	2.9	4743	5.7	2.2	-10.5	4.3
CC(C)N(Cc1ccccc1)C(=S)Nc1ccc(F)cc1	11.4	-0.6	3699	1.1	-1.4	-12.0	9.8
Cc1cc(C)c([C@@H]2C[C@H]3CN(C4CCCC4)C(=O)[C@]34CCCN24)c(-n2cccn2)c1	13.7	-2.2	6028	5.3	3.6	-20.5	4.1
Cc1ccsc1C1Nc2ccccc2C(=O)N1O (stereo unspecified)	2.3	2.7	2048	2.4	0.0	-10.6	2.3
O=C(Nc1ccc(S(=O)(=O)Nc2ccccn2)cc1)c1cccc(Cl)c1	11.4	2.9	3864	1.2	0.2	-20.3	-5.1
COC(=O)Cn1c(CN(Cc2ccccc2)Cc2ccccc2)nc2c1c(=O)[nH]c(=O)n2C	2.4	2.8	8465	3.7	-0.8	-1.1	-12.1
COc1cc(CC(=O)OCC(=O)c2ccc[nH]2)cc(OC)c1OC	8.3	3.0	3651	5.7	x	-13.3	-1.3
CCOc1cc(C=N/N=C2/NC(=O)C(CC(=O)O)S2)ccc1OCc1ccc(Cl)cc1Cl (stereo unspecified)	-2.2	6.4	x	0.6	x	x	-13.7
Cn1c(C(=O)N2CCN(C(=O)c3ccco3)CC2)cc2c(=O)n(C)c3ccccc3c21	x	x	6172	0.5	-3.1	-32.5	0.8
O=C(COC(=O)C1COc2ccccc2O1)Nc1cccc(F)c1 (stereo unspecified)	27.6*	61.2*	7933	1.2	x	-10.8	-0.2
Cc1cc(-c2csc(NC(=O)c3ccc(C#N)cc3)n2)c(C)n1Cc1ccco1	-4.3	2.0	2306	8.2	-0.6	-6.3	-26.1
COc1ccccc1N1CCN(C2CCCN(C(=O)c3cscn3)C2)CC1 (stereo unspecified)	x	x	5116	x	8.7	-5.1	x
CCCNC(=O)N1CCN(Cc2ccco2)CC1	-3.1	3.2	2027	2.2	3.7	-17.0	3.9
Cn1c(CN2CCOCC2)nnc1SCc1ccc(C#N)cc1	15.3	-1.5	4126	0.3	14.4	-12.0	4.7
NC1=NC(=O)/C(=C/c2ccc(OCC(=O)O)cc2)S1	3.0	1.3	3685	3.6	1.8	-7.6	4.5
O=C(COc1ccc(C=NNS(=O)(=O)c2ccccc2)cc1)NCc1ccccc1	7.8	5.3	x	5.5	x	x	-1.7
CC(=O)C1=C(c2ccccc2)NC(=S)NC1c1ccc(O)c(O)c1 (stereo unspecified)	13.1	4.2	3112	3.9	x	-18.3	-5.4

Complete entries, quoted from the list. Values in the order: Mtb hypoxia rep, Mtb hypoxia rep growth, Autofluor counter, RN4220 kill, BJeLR lethal, PrP UTR inh, Sa ugtP lethal
CCCNC(=O)N1CCN(Cc2ccco2)CC1 is listed with -3.1, 3.2, 2027, 2.2, 3.7, -17.0, 3.9
COc1cc(CC(=O)OCC(=O)c2ccc[nH]2)cc(OC)c1OC is listed with 8.3, 3.0, 3651, 5.7, x, -13.3, -1.3

The main list resumes; the two compounds before the break are reprinted first.
SMILES	Mtb hypoxia rep	Mtb hypoxia rep growth	Autofluor counter	RN4220 kill	BJeLR lethal	PrP UTR inh	Sa ugtP lethal
O=C(COc1ccc(C=NNS(=O)(=O)c2ccccc2)cc1)NCc1ccccc1	7.8	5.3	x	5.5	x	x	-1.7
CC(=O)C1=C(c2ccccc2)NC(=S)NC1c1ccc(O)c(O)c1 (stereo unspecified)	13.1	4.2	3112	3.9	x	-18.3	-5.4
COc1ccc(-n2c(C)cc(=O)c3c2CC(C)(C)CC3=O)cc1	x	x	4247	1.3	-3.1	-9.1	4.5
Cc1ccc(-n2nnnc2SCC(=O)Nc2cccc(NC(=O)c3ccco3)c2)cc1C	x	x	2231	0.2	2.4	-16.8	-1.7
Cc1cc(CCCCCCCCc2cc(C)cc(=O)o2)oc(=O)c1	1.0	6.5	8712	2.9	-1.9	-4.4	-2.8
Cc1ccc(Oc2ccc(OCC(=O)NC(CC(C)C)C(=O)O)cc2)cc1 (stereo unspecified)	8.4	1.5	3777	10.0	19.8	-7.4	-0.2
Cn1c2ccc(F)cc2c2ncn(CCCN(CCO)CCO)c(=O)c21	4.8	4.1	21356*	-0.8	-12.8	-7.2	1.0
CCN(CC)c1ccc(/C=c2\sc3nnc(-c4ccccc4Cl)n3c2=O)cc1	x	x	9724	x	26.4	10.3	x
C(=Nc1ccc(N2CCOCC2)cc1)c1c[nH]c2ccccc12	16.0	8.5	3687	2.8	-5.8	-20.3	-0.2
CCOC(=O)C1CCCN(S(=O)(=O)c2ccc(C)cc2)C1 (stereo unspecified)	2.2	3.9	6021	2.4	0.2	-0.4	2.9
CN1CCN(N=Cc2nc(-c3ccccc3Cl)n3ccccc23)CC1	-2.4	3.5	x	7.7	x	x	15.5
COC(=O)c1sc(N)c(C(=O)OC)c1COC(=O)[C@@H](NS(=O)(=O)c1cccc(Cl)c1)C(C)C	-1.3	0.0	2029	4.9	-6.5	-20.7	-7.3
N#Cc1ccc(C=NN2CCCCCC2)cc1	9.0	4.7	3000	15.8	x	-87.9	11.0
COc1cccc(C(=O)NCCCNC(=O)c2ccco2)c1	-8.2	7.6	3635	4.8	-1.9	-8.8	2.0
Cc1[nH]n(-c2nc(-c3cccc([N+](=O)[O-])c3)cs2)c(=O)c1C	7.9	2.9	8654	25.9	-21.9	-12.1	-3.8
COc1ccc(N(CC(=O)NN=C2CCCCCCC2)S(=O)(=O)c2ccccc2)cc1Cl	4.3	-0.9	2135	-11.0	-8.0	-24.3	0.0
CCOc1ccc2[nH]c(=O)c(CN(CCN3CCCC3)C(=S)Nc3ccccc3OC)cc2c1	0.9	4.1	6167	5.0	10.6	-0.9	4.9
O=C1c2ccccc2C(=O)N1CCc1nc2ccccc2c(=O)n1Cc1ccco1	x	x	4272	-1.4	1.2	-32.2	-2.5
Cc1ccc(Cn2nc(C)c(NC(=O)C3CC3)c2C)cc1	-4.2	5.1	8135	-2.4	3.7	-13.3	-9.2
COc1ccc(C(=O)C[n+]2ccccc2/C=N/O)cc1	x	x	2148	x	-0.2	-22.6	x
Cn1c(=O)oc2cc(S(=O)(=O)Nc3ccc(Cl)cc3F)ccc21	x	x	6037	10.6	4.0	-23.4	7.6
CC(CC(=O)Nc1cc(C)ccn1)=NNC(=O)c1ccc(C)cc1	9.5	8.3	x	2.8	x	x	-3.4

4 compounds from above, sorted by molecular weight, ascending.
SMILES	Mtb hypoxia rep	Mtb hypoxia rep growth	Autofluor counter	RN4220 kill	BJeLR lethal	PrP UTR inh	Sa ugtP lethal
C(=Nc1ccc(N2CCOCC2)cc1)c1c[nH]c2ccccc12	16.0	8.5	3687	2.8	-5.8	-20.3	-0.2
Cc1[nH]n(-c2nc(-c3cccc([N+](=O)[O-])c3)cs2)c(=O)c1C	7.9	2.9	8654	25.9	-21.9	-12.1	-3.8
CC(CC(=O)Nc1cc(C)ccn1)=NNC(=O)c1ccc(C)cc1	9.5	8.3	x	2.8	x	x	-3.4
Cc1cc(CCCCCCCCc2cc(C)cc(=O)o2)oc(=O)c1	1.0	6.5	8712	2.9	-1.9	-4.4	-2.8

Later entries
SMILES	Mtb hypoxia rep	Mtb hypoxia rep growth	Autofluor counter	RN4220 kill	BJeLR lethal	PrP UTR inh	Sa ugtP lethal
NC(=NOC(=O)CSc1ccccc1)c1ccc([N+](=O)[O-])cc1	-5.5	11.8	x	5.8	x	x	4.0
CC(=O)N(C)c1cccc(-c2ccc3nnc(C)n3n2)c1	6.2	2.7	4566	0.9	-6.5	-19.4	11.7
CCn1nc(C)c(C=NNC(=O)c2cccc(OC)c2)c1C	7.1	6.9	x	4.4	x	x	3.1
COc1cc(OC)c(OC)cc1CN1CCN(C(=O)Cc2ccccc2)CC1	-1.7	5.0	3399	4.4	-8.9	1.5	4.0
CSc1ncccc1C(=O)Nc1cccc(S(=O)(=O)N2CCCCC2)c1	8.8	13.0	7674	-2.4	x	-26.9	2.2
COCCn1c(SCC(=O)Nc2ccccc2F)nc2c(c1=O)SCC2	3.2	8.3	6186	2.8	-6.3	-11.0	3.9
O=C(Oc1cccc(C(=S)N2CCOCC2)c1)c1ccccc1	12.1	-6.8	3580	0.8	-0.1	-22.7	8.0
O=C(NCC1CCCO1)c1cc(Br)c(Br)s1 (stereo unspecified)	x	x	u	-1.4	10.7	-8.1	-2.3
Cc1oc2c(C)c3oc(=O)c(CCC(=O)O)c(C)c3cc2c1-c1ccccc1	-18.5	-18.7	3992	22.2	-5.7	-25.4	11.7
Cc1ccc(C)c(C(=O)Nc2nc3ccccc3[nH]2)c1	-10.1	-4.8	5711	-0.6	-2.2	-30.7	6.9
CCc1ccccc1N1C(=O)C2C3CC(=O)C(c4ccccc43)C2C1=O (stereo unspecified)	6.0	8.3	2036	9.8	-8.4	-6.8	7.7
CC1(C)C(C(=O)O)N2C(=O)C(NC(=O)Cc3ccccc3)C2S1=O (stereo unspecified)	x	x	3480	x	2.9	-11.1	x
CCc1nc2ccccc2n1CC(=O)OCC(=O)N(CC(C)C)c1c(N)n(Cc2ccccc2)c(=O)[nH]c1=O	-0.6	1.5	5402	3.2	1.0	-21.2	17.8
O=c1[nH]c(SCc2ccccc2Cl)nc2[nH]ncc12	x	x	1989	x	3.6	-15.6	x
O=C(Cc1cccc2ccccc12)N/N=C/c1ccc(F)cc1	x	x	8606	x	-13.3	-30.9	x
CCOc1ccccc1NC(=O)c1cc(S(=O)(=O)N2CCC3(CC2)OCCO3)ccc1F	0.5	4.6	10376	3.1	-12.5	-22.8	4.5
O=C(Cc1cccc(NC(=O)C2CCCN(C(=O)C3CCCCC3)C2)c1)Nc1ccc(C(=O)N2CCOCC2)cc1 (stereo unspecified)	-1.0	3.4	3838	1.5	x	-25.0	7.7
C/C(=N\NC(=O)c1sccc1-n1cccc1)c1cccs1	x	x	4671	x	1.7	-28.3	x
COc1ccc(OC)c(-n2c(-c3ccccc3)n[nH]c2=S)c1	3.3	3.7	22480*	3.8	-7.3	-27.6	0.4
CN(C)Cc1c(C(=O)NN=Cc2ccc(OCc3ccc(F)cc3)cc2)nnn1-c1nonc1N	1.4	-6.1	x	2.8	x	x	0.6
COc1ccc(F)cc1S(=O)(=O)NC1CCCC1	-4.6	-3.0	20620*	1.0	6.8	-35.4	0.0
COc1cc(NC(=O)c2ccc(NS(=O)(=O)c3c(C)noc3C)cc2)cc(OC)c1	x	x	2719	0.9	-18.3	-18.1	3.4
COC(=O)c1ccc(OC(=O)CCN2C(=O)C3CCCCC3C2=O)cc1 (stereo unspecified)	x	x	2559	x	5.6	-4.3	x
CCCc1nnc(NC(=O)Nc2ccc(OC)cc2)s1	8.5	11.1	4464	0.2	-1.1	-14.4	5.0
Cc1ccc(NC(=O)COC(=O)CN2CCCCCC2=O)c(C)c1	23.8	31.6	2949	2.5	x	-13.2	10.6
CCOc1cc(NC(=O)c2ccccn2)c(OCC)cc1NC(=O)c1ccc(OC)cc1	-3.4	-1.9	2329	1.3	9.3	-21.2	3.2
CNC(=O)c1ccccc1Sc1ccccc1C#N	0.7	-1.1	1976	3.4	-0.2	-8.0	-6.5
CCCCn1c(SCC(=O)NC2CCS(=O)(=O)C2)nc2cc(S(N)(=O)=O)ccc21 (stereo unspecified)	15.0	-3.1	3956	8.4	-5.7	-21.3	3.9
CCCCOC(=O)c1ccc(O)cc1	-3.0	3.6	3585	2.8	10.2	-26.6	-10.6
